Screens from PubChem BioAssay.
NPYLR7 ag = mosquito NPYLR7 agonism; AID 1259423; actives 0.15% (n = 270,000); HEK293T NPYLR7/Galpha15, GCaMP6s calcium fluorescence; activation, % at 10 µM; in the data active means activation above about 40%;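 further: 0% = vehicle and 100% = reference agonist at the receptor; some compounds past the cut are filed as inactive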
NPYLR7 ag max-min = second read-out of NPYLR7 ag, no call of its own (marks repeat the call); activation, %; measured here: Max-Min RFU normalised activation; some inactives read as strong as hits;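 span of the calcium signal over five minutes; 0% = vehicle and 100% = native peptide agonist; compound fluorescence can raise it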
* hit, by the source's call. Only part of the results is shown; the hit share may differ from the screen's.

SMILES	NPYLR7 ag	NPYLR7 ag max-min
O=C(Nc1ccc2c(c1)OCCO2)c1cc(C2CC2)n(C2CCS(=O)(=O)C2)n1 (stereo not given)	1	-2
Cc1cccc2sc(N(Cc3cccnc3)C(=O)c3ccc([N+](=O)[O-])s3)nc12	-2	5
COc1ccc(CNC(=O)CC2C(=O)NCCN2Cc2ccc(-c3ccccc3)cc2)cc1 (stereo not given)	7	3
Cc1ccc2oc(-c3ccc(C)c(NC(=O)c4ccc(Cl)c([N+](=O)[O-])c4)c3)nc2c1	1	3
CC1(C(=O)NCCC#N)CCN1C(=O)C1(c2ccccc2)CCCC1 (stereo not given)	15	19
Cc1cc(C(=O)Nc2ccc(-c3nc4ccccc4o3)c(O)c2)ccc1[N+](=O)[O-]	-10	-15
CCOC(=O)COc1ccc2oc(=O)cc(-c3cc4ccccc4o3)c2c1	-1	-3
Cc1cccc2cc(C(=O)N3C[C@H]4CC=CC[C@H]4C3)oc12	5	3
CN(C)S(=O)(=O)c1ccc(C(=O)Nn2cnc3c(cnn3-c3ccc(F)cc3)c2=O)cc1	16	13
CCOc1ccc(C(=O)NC(C)c2ccc(Cl)s2)cn1 (stereo not given)	-25	-26
COC(=O)c1cc(=O)c(O)c2c(O)c(O)ccc2c1	-8	-15
COc1ccc(OC)c(-c2cccc(-c3ccc(NC(=O)COc4ccc(Cl)cc4)cc3)n2)c1	-5	-8
O=c1[nH]cnc2c1CCN(S(=O)(=O)c1cc3ccccc3o1)C2	2	0
O=C(CN1CCCC1)Nc1c2c(nc3c1CCC3)CCC2	9	7
CCCCSc1nc2[nH]ncc2c(=O)[nH]1	-3	-5
Cc1cc(C)c(S(=O)(=O)N(CC(=O)N2CCC(C)CC2)Cc2ccccc2)c(C)c1	2	0
O=C(NC1(C(=O)NCC2CC2)CCCC1)c1ccn[nH]1	4	3
Cc1ccc(S(=O)(=O)NCCc2csc3nc(-c4ccccc4F)nn23)cc1C	25	16
CN(Cc1ccc(S(C)=O)cc1)c1ccc(Br)cn1 (stereo not given)	10	4
Cc1csc(SCc2ccc(C(=O)N3C4CCC3CC(Oc3cccc(C#N)c3)C4)cc2)n1 (stereo not given)	4	9
Cc1nc2ncc3c(=O)n(-n4c(C)nnc4C)ccc3n2n1	4	4
CC(=O)SCCC(=O)N1[C@@H](C)CCC[C@H]1C(=O)O	26	22
CN(Cc1ccsc1)C(=O)c1cc(COc2ccc3c(c2)CCCC3)on1	6	1
CCn1cc(CN2CC(=O)N(C(C)C)CC(OCc3cc(OC)cc(OC)c3)C2)c(C)n1 (stereo not given)	18	3
Cc1ccccc1-n1c(SCCCC(=O)N2CCN(C(=O)CCc3ccccc3)C(C)C2)nnc1-c1ccccc1 (stereo not given)	11	19
CCN(Cc1nccn1C)C(=O)c1ccc(N2CCC(COC)C2)nc1 (stereo not given)	1	-4
O=C(c1cc(=O)[nH]c(=O)[nH]1)N1CCCC(N2CCc3ccccc3C2)C1 (stereo not given)	9	7
FC(F)(F)c1cccc(Oc2ncccc2CNc2ncccc2Cl)c1	0	0
O=C1OCCN1c1cccc(NS(=O)(=O)c2ccc(OC(F)(F)F)cc2)c1	-1	-1
COc1ccc(-c2cc(C(=O)NCCCN3CCCCC3C)nc3c(-c4ccccc4)c(C)nn23)cc1 (stereo not given)	-1	8
Cc1ncc([N+](=O)[O-])n1CCC(C)C	2	2
O=S(=O)(c1cccc(C(F)(F)F)c1)N1CCN(c2nc(Cc3ccccc3)nc3cc(Cl)ccc23)CC1	16	27
Cc1nc2sccn2c(=O)c1NC(=O)CSCc1ccccc1	-13	-14
COc1cc2c(cc1OC)C(CNC(=S)Nc1cccc(C)c1)N(C(=O)NC(C)C)CC2 (stereo not given)	4	5
COc1ccccc1C(=O)NCCC(=O)N1CC(C)CC(C)C1 (stereo not given)	10	7
O=C(CN1CCC(C(=O)N2CCCCCC2)CC1)Nc1cccc(Cl)c1Cl	0	0

Four entries from above, set out differently:
Cc1cccc2sc(N(Cc3cccnc3)C(=O)c3ccc([N+](=O)[O-])s3)nc12
  NPYLR7 ag: -2
  NPYLR7 ag max-min: 5

COC(=O)c1cc(=O)c(O)c2c(O)c(O)ccc2c1
  NPYLR7 ag: -8
  NPYLR7 ag max-min: -15

O=C(NC1(C(=O)NCC2CC2)CCCC1)c1ccn[nH]1
  NPYLR7 ag: 4
  NPYLR7 ag max-min: 3

Cc1cccc2cc(C(=O)N3C[C@H]4CC=CC[C@H]4C3)oc12
  NPYLR7 ag: 5
  NPYLR7 ag max-min: 3

(list continues)
SMILES	NPYLR7 ag	NPYLR7 ag max-min
COc1ccc2nc(CN3CCN(C(=O)C4(c5cccs5)CCCC4)CC3)[nH]c2c1	12	7
O=C(Cn1nc2c(c1NC(=O)Cc1noc3ccccc13)CSC2)NCc1ccco1	-4	2
CCN(CC(=O)N1CCC(O)CC1)c1ccccc1	14	10
CC(=O)c1cc2cc(Br)ccc2oc1=O	-2	-4
COc1ccc(NC(=O)CNC(=O)CN(C(=O)c2cc(OC)c(OC)c(OC)c2)C2CCCCC2)cc1	-4	-4
O=C(CN1CCCC1c1ccc[nH]1)N(CC(F)(F)F)c1ccc(Cl)cc1 (stereo not given)	0	-3
COc1ccc(-n2c(CCC(=O)NCc3cccs3)ccc2-c2ccc(Cl)cc2)cc1	0	1
Cc1c(C)n2c3c(=O)n(CC=Cc4ccccc4)c(=O)n(C)c3nc2n1CCCl	1	1
CNS(=O)(=O)c1ccc(CN(Cc2ccccn2)CC(C)C)cc1	12	1
Cn1cccc1C(CNC(=O)C(=O)Nc1cc2c3c(c1)CCN3C(=O)CC2)N1CCCC1 (stereo not given)	4	3
COc1ccc(OCCn2c(C3CC(=O)N(C)C3)nc3ccccc32)cc1 (stereo not given)	4	14
CCCc1cc(C(=O)N2CCN3CCN(C)C(=O)C3C2)cs1 (stereo not given)	3	-1

Whole records, looked up by structure. Order of screens: NPYLR7 ag	NPYLR7 ag max-min
COc1ccc(-n2c(CCC(=O)NCc3cccs3)ccc2-c2ccc(Cl)cc2)cc1 across the screens: 0	1
O=C(CN1CCCC1c1ccc[nH]1)N(CC(F)(F)F)c1ccc(Cl)cc1 (stereo not given) across the screens: 0	-3
COc1ccc(OCCn2c(C3CC(=O)N(C)C3)nc3ccccc32)cc1 (stereo not given) across the screens: 4	14
CC(=O)c1cc2cc(Br)ccc2oc1=O across the screens: -2	-4
Cc1c(C)n2c3c(=O)n(CC=Cc4ccccc4)c(=O)n(C)c3nc2n1CCCl across the screens: 1	1

Further structures:
SMILES	NPYLR7 ag	NPYLR7 ag max-min
CCOC(=O)c1cnn2c1NCCC2	17	10
O=C(c1ccccc1)N1N=C(c2ccccc2)CC1c1ccc2c(c1)OCO2 (stereo not given)	-7	-12
CC1CCCC(NC(=O)CSc2nnc(-c3ccccc3F)o2)C1C (stereo not given)	8	4
CCCCOC(=O)c1ccc(Nc2ncnc3c2nnn3C)cc1	19	11
CCOC(=O)CCCNC(=O)N1CCN(c2ncccc2C(=O)NCCc2ccc(OC)c(OC)c2)CC1	25	13
CC(C)CN(C(=O)C(C)NC(N)=O)C(C)C (stereo not given)	3	-6
Cc1cc2c(cc1C)NC(c1cccc(C(F)(F)F)c1)C1C(=O)CC(C)(C)CC1=N2 (stereo not given)	-7	-12
O=c1cc(-c2ccc3c(c2)OCCCCO3)oc2ccc([N+](=O)[O-])cc12	5	3
O=C(Cc1ccccc1)N1CCN=C1SCc1ccc([N+](=O)[O-])cc1	-1	-5
O=C(CSc1ccc2nnc(-c3cccnc3)n2n1)N1CCCCC1c1ccc(F)cc1 (stereo not given)	37	16
Cc1nnnn1-c1cccc(-c2n[nH]c(Cc3ccccc3)n2)c1	10	8
COC(=O)c1ccc(C(=O)Nc2c(C)cnn2C(C)C2CC2)nc1 (stereo not given)	-3	-8
CC1CN(C(=O)NCCc2nc(C(C)C)no2)CC(C)S1 (stereo not given)	6	0
CCOC(=O)c1cc(-c2cccc(NC(=O)c3cc(C)oc3C)c2)n(-c2ccccn2)n1	18	12
O=C(NC1CCN(C(=O)c2ccco2)CC1)c1cccc(S(=O)(=O)N2CCCCC2)c1	7	3
CCCCN(C)C(=O)c1ccc(S(=O)(=O)N2CCN(C(C)=O)CC2)cc1	-3	-3
CCCNC(=O)c1nnn(-c2ccc(OCC)cc2)c1COC	5	4
CS(=O)(=O)c1ccc(NC(=O)CN2C(=O)NC3(CCS(=O)(=O)c4ccc(F)cc43)C2=O)cc1 (stereo not given)	-5	-7
Cc1cc(C)nc(SCC(=O)Nc2nnc(C(F)(F)F)s2)n1	0	1
O=C(CCc1ccc2c(c1)OCO2)NCc1ccc(Cl)s1	5	1
CC(C)C(C)n1nccc1NC(=O)Cn1cnc2ccsc2c1=O (stereo not given)	1	2
Cc1cc(C)nc(NN=C2CCSc3ccc(F)cc32)n1	1	0
Cc1ccc(C)c(CS(=O)(=O)CC(=O)Nc2ccc(F)cc2F)c1	-1	-3
COc1ccc2oc(=Nc3ccc(C)cc3)c(C(N)=O)cc2c1	-10	-13
COCc1nnc(NC(=O)COc2ccc(Br)cc2C(C)(C)C)s1	-2	2
CCN(CC)CCCNc1ncnc2sc3c(c12)CCCC3	0	-1
COc1ccc2c(c1)c(C(=O)N1CCC3(CCCN(C)C3=O)C1)c(C)n2C (stereo not given)	-1	-5
COc1ccc(C)c(NC(=O)C2OC(Cc3ccccc3)=NN2C(C)=O)c1 (stereo not given)	6	3
Cc1cnn(-c2ccccc2OCC(=O)O)c1	-5	-6
O=C(Nn1cnc2ccccc2c1=O)c1ccc(COCC(F)(F)F)cc1	3	-1
COc1cc2nc(NC(=O)Nc3cccs3)sc2cc1OC	-2	-4
CCn1c(C)c(C(=O)CN(CC2CCCO2)C(=O)c2ccc(C)c([N+](=O)[O-])c2)c(C)c1C(=O)OC (stereo not given)	-6	0
CC(C)C(NS(=O)(=O)c1cnn(C)c1)c1ccc(Cl)cc1 (stereo not given)	0	0
COCCCNC(=O)C(NC(=O)c1cccc(C)c1)C1CCN(C(=O)C2CCCC2)CC1 (stereo not given)	-1	6
CCOC(=O)C1CCCN(C(=O)c2cc(-c3ccc(OC)cc3)nc3cc(-c4ccc(Cl)cc4)nn23)C1 (stereo not given)	23	18
CC(=O)c1cccc(OCc2cc(C(=O)N(C)C3CCOC3)n[nH]2)c1 (stereo not given)	-1	-7
Cc1noc(-c2ccncc2)c1C(=O)NCc1ccccc1Cl	0	8
Cc1ccc(NC(=O)CNCc2cnn(-c3cccc(F)c3)c2)c(C)c1	15	0
CC1CCc2c(sc3nc(C(C#N)=Cc4ccsc4)[nH]c(=O)c23)C1 (stereo not given)	0	-1
COc1cc(/C=C2\C(=O)N(c3ccc(Cl)c(C(=O)O)c3)N=C2C)cc([N+](=O)[O-])c1O	3	-12
CC(C)N(Cc1nccn1Cc1cccc(Cl)c1)C(=O)c1ccc(F)cc1	3	13
CC(CNC(=O)Nc1ccc(C#N)cc1)N1CCc2ccccc21 (stereo not given)	1	2
COCc1c(Br)c(C)nc(OCC(=O)N/N=C\c2cc(-c3ccccc3)n(-c3ccc(C)cc3)c2-c2ccccc2)c1C#N	-3	0
CC(CC(=O)Nc1c(-c2ccc(F)c(F)c2)nc2ccccn12)CC(C)(C)C (stereo not given)	-10	-4
CCOC(=O)C1(Cc2ccc(Cl)cc2)CCN(C(=O)Nc2ccc(Cl)cc2C)CC1	11	11
CCOC(=O)c1ccccc1NC(=O)COc1coc(CN2CCc3ccccc32)cc1=O	1	-3
O=[N+]([O-])c1ccc(Cl)cc1NN=C1C2CC3CC1CC(O)(C3)C2	-3	-2
Cc1cc(C)n(CCCN(C)Cc2cccc3c2OCO3)n1	2	1
N#Cc1c2c(c(Cl)n3c1nc1ccccc13)CCC2	8	3
CS(=O)(=O)NCCc1ccc(C(=O)N2CCN(Cc3ccccc3)CC2)s1	17	12
COc1cc(NC(=O)c2cc(F)ccc2F)cc(OC)c1	3	3
CSc1ncc(CNCCC#N)c(N(C)C2CCCCC2)n1	0	-6
COc1cccc(C(=O)Nc2c(C(=O)Nc3ccc(C)c(C)c3)oc3ccccc23)c1OC	-3	5
COCCCN(CC(=O)N(Cc1ccc2c(c1)OCO2)Cc1sccc1C)C(=O)C1CCC1	-6	4
CN(CCO)CC(C)(C)NS(=O)(=O)c1ccccc1	-1	0
COc1cc(OC)cc(C2NC(=O)N(C)C3=C2C(=O)N(Cc2ccco2)C3)c1 (stereo not given)	29	27
O=C(NCc1cccc(Cl)c1)c1ccc(-c2cc(-c3ccc(Cl)cc3Cl)[nH]n2)cc1	4	17
O=S(=O)(Nc1ncnc2sc3c(c12)CCC3)c1cccs1	-1	9
CCn1ccc(C(=O)N2Cc3cnc(C(C)(C)C)nc3C2)cc1=O	0	-3
C=CCCC(=O)N1CCc2ccccc2C1c1ccc(F)cc1 (stereo not given)	-5	3

Following part.
SMILES	NPYLR7 ag	NPYLR7 ag max-min
COc1ccc(CCN(Cc2ccc(C)o2)C(=O)CN(CCN2CCCCC2)C(=O)c2ccc(Cl)c(Cl)c2)cc1OC	-4	-4
O=C(Nc1ccc(-c2csnn2)cc1)N1CCC(N2CCCC2)C1 (stereo not given)	4	1
COc1ncc(CN2CCC3(CCCN(Cc4ccccc4F)C3=O)C2)cn1 (stereo not given)	-3	-4
CC(C)c1nnsc1CN1CCCC1c1ccc(F)cc1 (stereo not given)	1	1
COc1cc(NC(=O)Cn2nc([N+](=O)[O-])cc2C)c(OC)cc1Cl	1	-2
O=C1OC(c2ccccc2)=N/C1=C\c1ccc(-c2ccc(Br)cc2)o1	-4	-12
Cc1ccccc1NC(=O)CSC1=NS(=O)(=O)c2ccccc2N1	10	5
COc1ccccc1-c1cccc(C(=O)N(Cc2cnn(C)c2)C2CC2)c1	-4	-6
COc1ccc(-c2cc3c(=O)n(Cc4nc(-c5ccc(OC)cc5)no4)ccn3n2)cc1	2	3
